# Screening data as filed in PubChem BioAssay.
# MbtI inh: MbtI salicylate synthase inhibition; actives 0.89% (n = 100,000); AID 493033; P9WFX0; purified MbtI enzyme, fluorescence intensity read-out; inhibition, %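 (about 17 µg/mL by stock and volumes)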;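 active = above 50% in both replicates, above 80% if mildly self-fluorescent; inactive = the rest, strongly fluorescent compounds included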;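 note: 0% = mean of negative and 100% = mean of positive controls; one replicate is shown; some compounds called inactive have numbers as strong as hits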
# Target sequence (P9WFX0 whole entry, looked up): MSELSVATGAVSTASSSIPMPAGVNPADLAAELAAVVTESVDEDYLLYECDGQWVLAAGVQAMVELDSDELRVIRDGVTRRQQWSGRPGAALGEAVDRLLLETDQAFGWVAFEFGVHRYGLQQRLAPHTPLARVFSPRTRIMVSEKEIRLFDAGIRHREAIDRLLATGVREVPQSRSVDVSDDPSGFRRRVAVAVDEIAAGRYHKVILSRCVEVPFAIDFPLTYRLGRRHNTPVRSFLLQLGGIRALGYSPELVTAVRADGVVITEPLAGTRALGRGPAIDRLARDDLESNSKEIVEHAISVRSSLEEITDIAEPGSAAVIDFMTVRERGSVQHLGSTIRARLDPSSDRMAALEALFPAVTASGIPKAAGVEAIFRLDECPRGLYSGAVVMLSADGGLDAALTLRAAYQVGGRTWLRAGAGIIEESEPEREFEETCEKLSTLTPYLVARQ
# MenB inh: inhibitors of Mycobacterium tuberculosis MenB enzyme; actives 0.43% (n = 100,000); MenB enzyme assay, absorbance read-out; some hits fall short of the stated cut; inhibition, %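 (about 12 µg/mL by stock and volumes)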; P9WNP5;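 active = mean of two replicates above 30%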;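 note: 0% = no compound and 100% = wells with inactive enzyme; the first replicate is given; strong numbers were not always called active; inactives centre near -10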
# Target sequence (P9WNP5 whole entry, looked up): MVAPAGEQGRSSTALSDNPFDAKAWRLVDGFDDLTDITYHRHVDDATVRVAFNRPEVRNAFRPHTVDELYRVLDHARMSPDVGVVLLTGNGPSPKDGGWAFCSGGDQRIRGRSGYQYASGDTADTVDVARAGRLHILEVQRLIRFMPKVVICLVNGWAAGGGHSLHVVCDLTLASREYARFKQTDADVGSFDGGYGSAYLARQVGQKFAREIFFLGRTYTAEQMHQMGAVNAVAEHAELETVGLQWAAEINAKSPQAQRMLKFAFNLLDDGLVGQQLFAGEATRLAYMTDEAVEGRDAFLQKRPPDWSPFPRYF
# Polio RdRp inh: inhibitors of poliovirus RNA polymerase binding and polymerization; P03300; poliovirus polymerase elongation, fluorescence polarization; active compounds read low; % elongation, % (compound at 16.7 µg/mL); actives 0.66% (n = 150,000); AID 588519; in the data active = % elongation below about 90%; note: some results filed as inactive read as strong as hits
# Polio RdRp inh intensity: also measured in Polio RdRp inh; calls as there; % elongation; measured here: total intensity read-out; formula for this scale not given here;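 total fluorescence in place of polarization; lower means less elongation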
# * hit, by the source's call; / = not tested or not shown.
1) CCc1ccc(NC(=O)CN(C)S(=O)(=O)c2cc(Br)cnc2N)cc1
2) O=C(Nc1cccnc1)c1cn(-c2ccccc2)nc1-c1cccs1
3) COc1ccc(C=C(C#N)C#N)cc1Br
4) COc1ccccc1N1CCN(c2ncnc3nc[nH]c23)CC1
5) CCOC(=O)C1=C(O)/C(=C\c2ccccc2)N=C1C
6) Cc1ccccc1CN(Cc1ccco1)C(=O)c1cc2ccccc2oc1=O
7) COC(=O)c1cn(-c2ccccc2)nc1-c1cccs1
8) O=C(CN1C2=NCCN2c2ccccc21)C12CC3CC(CC(C3)C1)C2
screen / no.,1,2,3,4,5,6,7,8
MbtI inh,-2,7,-1,-11,/,1,6,-13
MenB inh,-17,-28,1,-7,-55,-37,-117,-19
Polio RdRp inh,104,104,98,103,108,103,101,102
Polio RdRp inh intensity,102,108,101,104,103,100,101,102

# Record cards, as listed above. Order of values: MbtI inh | MenB inh | Polio RdRp inh | Polio RdRp inh intensity
# Entry for Cc1ccccc1CN(Cc1ccco1)C(=O)c1cc2ccccc2oc1=O : 1 | -37 | 103 | 100
# Entry for O=C(CN1C2=NCCN2c2ccccc21)C12CC3CC(CC(C3)C1)C2 : -13 | -19 | 102 | 102
# Entry for COc1ccccc1N1CCN(c2ncnc3nc[nH]c23)CC1 : -11 | -7 | 103 | 104

# Following part
9) O=C(Cn1c(=O)c2sccc2n(Cc2cccc(Cl)c2)c1=O)NCc1ccco1
10) CNC(=O)NC(=O)C(Sc1nnc2sc3ccccc3n12)c1ccccc1 (configuration not stated)
11) CCOC(=O)c1c(O)c(Cl)c(C)[nH]c1=O
12) O=C(Oc1ccc2c(c1)OCO2)c1cccc(S(=O)(=O)N2CCCC2)c1
13) COc1cccc(C2CC(C(F)(F)F)n3ncc(C(=O)O)c3N2)c1 (configuration not stated)
14) Cc1ccc(C)n1-c1nnc(N2CCC(C(=O)O)CC2)s1
15) Cc1ccccc1NC1=NC2(CCCCC2)N=C(N)N1
16) Cc1cc(N)n2ncnc2n1
screen / no.,9,10,11,12,13,14,15,16
MbtI inh,-9,-8,/,-2,3,-1,-23,-12
MenB inh,-2,-18,-10,-52,-21,2,-30,-53
Polio RdRp inh,102,101,105,102,102,101,101,101
Polio RdRp inh intensity,100,105,110,100,106,101,107,103

17) Cc1nc2ccccc2n1CC(=O)O
18) CCCN1CCN(C(=O)Cc2csc(-c3ccc(OC)c(OC)c3)n2)CC1
19) C/C(=N\n1cnnc1)c1ccc2ccccc2c1
20) CCN(C(=O)CSc1nc(C)cc(C(F)(F)F)n1)c1ccccc1
21) Cc1noc(C)c1COc1cccc(C(=O)N2CCN(c3ccccc3)CC2)c1
22) Cc1ccc(-c2nnc(SCCC(=O)N3CCOCC3)o2)cc1
23) O=C(COCc1nc2ccccc2c(=O)[nH]1)NCC1CCCCC1
24) CCCCN(C)S(=O)(=O)c1ccc(C(=O)Nc2cccc3c2C(=O)NC3=O)cc1
screen / no.,17,18,19,20,21,22,23,24
MbtI inh,-12,101,129,-19,25,10,4,34
MenB inh,/,-3,13,-1,-27,28*,-46,-37
Polio RdRp inh,102,105,99,99,104,99,102,102
Polio RdRp inh intensity,106,105,101,102,108,100,100,102

25) Cc1sc2ncn(C)c(=O)c2c1-c1ccccc1
26) Cc1cc(C(=O)Cn2cc(S(=O)(=O)N(C)C)ccc2=O)c(C)n1Cc1ccco1
27) Cc1ccc(N2C(=O)/C(=C\c3ccc4c(c3)OCO4)N=C2SCC(=O)N2CCN(C(=O)c3ccco3)CC2)cc1
28) CC(C)(C)NC(=O)C(C(=O)c1ccccc1)n1ccccc1=O (configuration not stated)
29) O=C(OCC(=O)N1CCCCC1)c1c[nH]c(=O)[nH]c1=O
30) Cc1ccc(S(=O)(=O)NCc2ccc(/C=C(/C#N)C(=O)NCc3ccccc3)o2)cc1
31) CCOC(=O)c1ccc(-c2ccc(/C=C3\SC(N=Nc4c(O)[nH]c5ccccc45)=NC3=O)o2)cc1
32) CC(CCc1ccco1)NC(=O)Cn1ncc2ccccc21 (configuration not stated)
screen / no.,25,26,27,28,29,30,31,32
MbtI inh,-5,-5,-7,/,-33,-16,23,12
MenB inh,9,-13,-33,-3,3,-39,0,10
Polio RdRp inh,99,104,98,104,103,105,99,101
Polio RdRp inh intensity,101,105,102,114,101,103,97,98

33) Cn1c(SCC(=O)c2ccc3c(c2)CCCC3)nc2ccccc2c1=O
34) CCn1c(CSc2nnc(COc3ccc(OC)cc3)n2-c2ccccc2F)nc2cc(C(=O)O)ccc21
35) N#C/C(=C(\O)CCl)c1nnc2n1CCCCC2
36) Cc1cc2c(=O)n(CC(=O)NCC(=O)N3CCC(C(N)=O)CC3)cnc2s1
37) Cc1noc(C)c1S(=O)(=O)NC(C)C(=O)O (configuration not stated)
38) C=C(C)c1cccc(C(C)(C)NC(=O)Nc2ncccn2)c1
39) CC(C)n1cnnc1SCC(=O)Nc1ccc(F)cc1
40) CCn1c(=O)c(=O)[nH]c2cc(C(=O)Nc3nc(CN4CCCCC4)cs3)ccc21
screen / no.,33,34,35,36,37,38,39,40
MbtI inh,/,-5,-4,1,-8,3,28,-6
MenB inh,-4,-6,/,-8,-46,-3,11,-29
Polio RdRp inh,103,98,101,99,106,102,101,/
Polio RdRp inh intensity,99,107,103,102,102,100,98,/

41) Cc1cc(C)c2c3n(nc2n1)C(=O)NC(C(F)(F)F)(C(F)(F)F)N3
42) CC(C)c1ccc(-c2nc(N3CCCCCC3)nc3n[nH]c(N)c23)cc1
43) CCOc1cc(C(=O)NCCc2nc3ccccc3[nH]2)cc(OCC)c1OCC
44) COc1ccc(-n2cnc3cc(C(=O)NCc4ccccc4OC)ccc32)cc1
45) CCN(c1ccc(C(=O)CSc2nnc(C(F)(F)F)n2C)cc1)S(C)(=O)=O
46) O=C1Nc2cc(C(=O)N3CCN(c4ccccc4)CC3)ccc2Sc2ccccc21
47) CCN(c1ccc(F)cc1)S(=O)(=O)c1ccc2[nH]cc(C(=O)NCC3CCCO3)c(=O)c2c1 (configuration not stated)
48) Cc1c(C(=O)O)sc2c1C(=O)NS2(=O)=O
screen / no.,41,42,43,44,45,46,47,48
MbtI inh,/,-8,18,-9,-11,12,-137,-2
MenB inh,-35,-7,2,-19,5,-3,10,-4
Polio RdRp inh,108,102,104,100,105,101,100,99
Polio RdRp inh intensity,116,104,100,101,102,101,103,104

# Given bar-delimited: four of the compounds above.
No. | Molecule | MbtI inh | MenB inh | Polio RdRp inh | Polio RdRp inh intensity
12 | O=C(Oc1ccc2c(c1)OCO2)c1cccc(S(=O)(=O)N2CCCC2)c1 | -2 | -52 | 102 | 100
33 | Cn1c(SCC(=O)c2ccc3c(c2)CCCC3)nc2ccccc2c1=O | / | -4 | 103 | 99
44 | COc1ccc(-n2cnc3cc(C(=O)NCc4ccccc4OC)ccc32)cc1 | -9 | -19 | 100 | 101
1 | CCc1ccc(NC(=O)CN(C)S(=O)(=O)c2cc(Br)cnc2N)cc1 | -2 | -17 | 104 | 102

# Additional structures follow.
49) O=C(C1Sc2nnc(-c3ccccc3)n2NC1c1ccccc1)N1CCCC1 (configuration not stated)
50) Nc1nnc(C2=C(O)/C(=C/c3ccccc3)CC2)s1
51) N#Cc1c(SCC(N)=O)nc2c(c1-c1ccc(O)cc1)CCCC2
52) Cc1ccccc1-c1nnn(CC(=O)NC(=O)NC(C)C)n1
53) CSC1=N/C(=C\c2cccnc2)C(=O)N1c1ccccc1
54) CCOC(=O)c1[nH]c(C)c(/C=N/O)c1C
55) Clc1ccc(OCc2nc3ccccc3n2CN2CCOCC2)cc1
56) CN(CC(=O)Nc1ccc2[nH]c(=O)[nH]c2c1)c1ccc2ccccc2c1
screen / no.,49,50,51,52,53,54,55,56
MbtI inh,-4,17,19,-1,-17,-16,-6,-24
MenB inh,-18,-4,-22,-29,-10,11,7,-21
Polio RdRp inh,102,107,110,104,100,103,104,100
Polio RdRp inh intensity,98,217,123,95,101,100,107,101

# 2 entries from above, as labelled records:
49. O=C(C1Sc2nnc(-c3ccccc3)n2NC1c1ccccc1)N1CCCC1 (configuration not stated)
  MbtI inh = -4 | MenB inh = -18 | Polio RdRp inh = 102 | Polio RdRp inh intensity = 98
50. Nc1nnc(C2=C(O)/C(=C/c3ccccc3)CC2)s1
  MbtI inh = 17 | MenB inh = -4 | Polio RdRp inh = 107 | Polio RdRp inh intensity = 217

# Carrying on.
57) Cc1c(C(=O)Nc2ccncc2)oc2ccccc12
58) Cc1cccc(NC(=S)NC2CCCC2)c1
59) Cn1nc(CC(=O)N2CCCN(S(=O)(=O)c3ccc(F)cc3)CC2)c2ccccc2c1=O
60) CC(CN1CCCC1)OC(=O)COc1ccccc1 (configuration not stated)
61) O=C(c1cc2ccccc2oc1=O)N(Cc1ccc(F)cc1)C1CC1
62) COc1ccc(C2Nn3c(nnc3-c3ccccc3)SC2C(=O)Nc2ccccc2)cc1 (configuration not stated)
63) CCOC(=O)c1cnc(SCC(=O)Nc2ccccc2)nc1N
64) CCOc1nc(C)c(/C=C/C(=O)O)c(OCC)n1
screen / no.,57,58,59,60,61,62,63,64
MbtI inh,-3,-6,12,/,10,5,28,20
MenB inh,38*,-3,-25,-14,-50,-14,-4,18
Polio RdRp inh,101,99,90,105,102,100,98,99
Polio RdRp inh intensity,103,105,70,111,98,101,100,101

65) Cc1c(/C=N/NC(=O)Cn2c(C(F)(F)F)nc3ccccc32)cc(C#N)n1C
66) Cc1cc(C)c(S(=O)(=O)n2c(SCC(=O)NC3CCCCC3)nc3ccccc32)c(C)c1
67) Cc1ccc(C2CCN(C(=S)NC(C)C)C2)cc1 (configuration not stated)
68) C=CCn1c(=O)c(C(=O)NC)c(O)c2cc(OC)c(OC)cc21
69) O=C(NCc1nc(-c2ccc(Cl)cc2)no1)C1CCCCC1
70) COCCNC(=O)NC1CCCCC1
71) CC(C)(C)c1nn(-c2ccccc2)c2[nH]c(=O)c(CNc3ccc4c(c3)OCO4)cc12
72) c1cc2c(cc1Nc1nc(-c3ccc4c(c3)OCO4)cs1)OCCO2
screen / no.,65,66,67,68,69,70,71,72
MbtI inh,18,3,-8,90,14,-16,2,9
MenB inh,-3,-27,-23,-2,-1,-26,-30,-13
Polio RdRp inh,98,96,104,102,102,99,106,101
Polio RdRp inh intensity,103,91,104,102,103,104,101,110

73) CCC(C)NS(=O)(=O)c1ccc2c(c1)CC(=O)N2 (configuration not stated)
74) CC(C)(C)NC(=O)COc1ccc(S(=O)(=O)N2CCOCC2)cc1
75) O=C(Nc1ccc(N2CCCC2)cc1)c1ccc(Br)o1
76) CCN1C(=O)c2ccccc2S(=O)(=O)c2ccc(C(=O)NC3CCCC3)cc21
77) CCN(CC)c1cc(C)c2cc(NC(=O)/C=C/c3ccco3)ccc2n1
78) Cc1cc(C)nc(SCC(=O)C(C)(C)C)n1
79) CS(=O)(=O)N(Cc1nnc(-c2cccs2)o1)c1ccc(Cl)cc1F
80) O=C(c1ccc(Cl)cc1)N1CCCC1
screen / no.,73,74,75,76,77,78,79,80
MbtI inh,-6,7,2,-10,14,1,5,-5
MenB inh,-10,9,-5,-1,-6,31,0,-5
Polio RdRp inh,99,100,101,103,101,102,101,100
Polio RdRp inh intensity,99,103,102,103,104,100,107,100

81) O=C(CCc1nc(-c2cccs2)no1)Nc1c(C(=O)N2CCN(c3ncccn3)CC2)oc2ccccc12
82) O=C(COC(=O)Cn1nc(-c2ccccc2)oc1=O)Nc1ccc(F)cc1
83) CCOc1ccc(N(CC)S(=O)(=O)c2c(C)[nH]c(=O)[nH]c2=O)cc1
84) COc1ccc(N(CC(=O)N2c3ccccc3CC2C)S(=O)(=O)c2c(C)noc2C)cc1 (configuration not stated)
85) C=CCn1c(C(C)NC(=O)c2ccccc2Cl)n[nH]c1=S (configuration not stated)
86) CCOc1cccc(C(=O)Oc2cccc3ccc(C)nc23)c1
87) CCN1CCN(C(=O)c2ccc(CS(=O)(=O)Cc3ccccc3F)o2)CC1
88) O=C(Cn1c(=O)sc2ccccc21)Nc1nncs1
89) Cn1c(N)c(C(=O)COC(=O)[C@@H]2CCCN2S(=O)(=O)c2ccc(Cl)cc2)c(=O)n(C)c1=O
90) Fc1c(F)c(F)c(OC(c2ccccc2)C(F)(F)F)c(F)c1F (configuration not stated)
91) O=C(Cn1cnc2sc(-c3ccccc3)cc2c1=O)N1CCCC1
screen / no.,81,82,83,84,85,86,87,88,89,90,91
MbtI inh,-35,-3,-2,-6,10,10,-11,5,-5,-10,-19
MenB inh,1,-7,7,-5,-29,-12,-17,-3,3,-42,-17
Polio RdRp inh,102,103,101,101,104,99,101,100,107,99,100
Polio RdRp inh intensity,102,107,104,102,102,104,108,101,105,99,104
